Assay outcomes (PubChem BioAssay)
CSC inhib – blocks cancer stem cells | cancer stem cell-like cells viability, luminescence | inhibition, % at 7.5 µM | hit rate 1.1% among 300,000;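 active = mean at 75% or more and at least half the replicates too; inconclusive = mean and replicates disagree; tested in HMLE shEcad cells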;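 also: 0% = median of negative and 100% = median of positive control wells; the first replicate is given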
Rce1 inh – blocks yeast Ras-converting enzyme. Q03530. yeast membranes, quenched prenylated peptide cleavage fluorescence. calls only. hit rate 0.27% among 290,000. AID 2563;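 active = fall in fluorescence gain of 50% or more versus controls, with final raw signal at or below 3038400; inconclusive = same 50% fall but final raw signal above 3038400; inactive = fall in fluorescence gain under 50%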;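 also: plate controls were neutral control wells for no effect and wells lacking membranes for full effect; tested at 10 µM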
PABP polyA inh – blocks human PABP binding to poly(A) RNA; P11940; fluorescence polarization; inhibition, % at 35 µM; hit rate 1% among 290,000; AID 2014;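 active = 50% or more with normal probe brightness, or confirmed in later tests; inconclusive = above 50% with abnormal brightness, or retests that disagree; inactive = below 50% or failed in later tests; about a fifth of its hits are not listed in these tables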;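 also: calls also rest on retests at 20 µM and on dose response follow-up; controls were probe without protein and protein plus probe with vehicle; some compounds called inactive have numbers as strong as hits; many hits fall short of the cut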
Target sequence (P11940 whole entry, looked up): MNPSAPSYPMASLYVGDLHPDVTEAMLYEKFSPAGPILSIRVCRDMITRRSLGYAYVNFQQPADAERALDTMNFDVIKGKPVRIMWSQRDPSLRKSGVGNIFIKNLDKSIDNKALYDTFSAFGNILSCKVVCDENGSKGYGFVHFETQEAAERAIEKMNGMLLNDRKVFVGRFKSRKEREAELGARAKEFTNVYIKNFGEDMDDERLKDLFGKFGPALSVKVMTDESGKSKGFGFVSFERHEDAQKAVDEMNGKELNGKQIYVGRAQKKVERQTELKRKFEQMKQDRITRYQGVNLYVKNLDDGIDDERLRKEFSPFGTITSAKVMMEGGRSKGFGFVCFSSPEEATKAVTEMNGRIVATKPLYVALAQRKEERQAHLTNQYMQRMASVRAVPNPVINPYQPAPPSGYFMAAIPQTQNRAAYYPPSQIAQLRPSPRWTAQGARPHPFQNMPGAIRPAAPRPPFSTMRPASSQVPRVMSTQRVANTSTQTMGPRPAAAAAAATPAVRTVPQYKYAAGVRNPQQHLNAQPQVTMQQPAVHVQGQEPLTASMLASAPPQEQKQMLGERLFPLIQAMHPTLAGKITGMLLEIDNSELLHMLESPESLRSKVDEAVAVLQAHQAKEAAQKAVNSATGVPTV
eIF4H FP inh – inhibitors of RNA binding by human eIF4H; eIF4H fluorescence polarization binding assay; inhibition, % at 35 µM; hit rate 0.94% among 290,000; AID 2012;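 active = 50% or more with normal probe brightness, or confirmed in later tests; inconclusive = above 50% with abnormal brightness, or retests that disagree; inactive = below 50% or failed in later tests; about a fifth of its hits are not listed in these tables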;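 also: calls also rest on retests at 20 µM and on dose response follow-up; 0% = protein and probe with vehicle and 100% = probe without protein; strong numbers were not always called active; many hits fall short of the cut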
HIV Env fusion – blocks HIV Env-driven cell-cell fusion. HeLa-JRFL Env/CEM21 cell fusion, luciferase. hit rate 1.1% among 360,000. inhibition, % at 12.3 µM. AID 651610;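 active = mean replicate inhibition score of at least 50 and every replicate individually at or above 50; inconclusive = only one of the two criteria met; inactive = mean below 50 and not all replicates reaching 50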;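 also: 0% = plate neutral controls and 100% = maraviroc near 300 nM; one replicate is shown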
MT1-MMP act inh – blocks activation of human MT1-MMP; HT1080 RFP-PRO-GFP cells, GFP/RFP ratio fluorescence, overnight; percent of plate control window, DMSO zero; hit rate 0.061% among 360,000; GFP/RFP ratio change, % at 20 µM;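 active = GFP/RFP ratio change of at least 30% with cell ATP level not reduced by more than half and red fluorescence within 50% of control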; also: strong numbers were not always called active
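Assay system – RFP-PRO-GFP reporter HT1080 cells · Compound dosing – single dose of 20 µM compound, 1% DMSO final · Incubation – overnight compound exposure at 37 °C · Measure – GFP/RFP fluorescence ratio · Benchmarks – DMSO wells and RFP-L50D-GFP cells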
Yeast UUG start – alters start codon recognition fidelity in yeast; activity score, % at 18.7 µM; AID 602363; S. cerevisiae UUG-firefly luciferase reporter, luminescence/redox ratio; hit rate 0.13% among 350,000;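 active = replicate mean at a twofold rise or more, about +100% in these data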;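 also: firefly luciferase made from a UUG start codon reports start codon fidelity; reporter light over untreated wells divided by growth signal over untreated wells; some hits fall short of that in this replicate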
eIF4H FP inh retest – also measured in eIF4H FP inh; calls as there; inhibition, %; compound at 20 µM; confirmation average;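 mean of two retest wells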
PABP polyA inh retest – also measured in PABP polyA inh; calls as there; inhibition, %; compound at 20 µM; confirmation repeats;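 mean of two retest wells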
MT1-MMP act inh RFP – further read-out of MT1-MMP act inh, marked with its call; RFP signal change, %; measured here: RFP expression control read;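 0 = vehicle wells; hits needed this value within 50% of zero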
* = called active by the depositor; i = inactive; ? = inconclusive; . = no result given.

SMILES	CSC inhib	Rce1 inh	PABP polyA inh	eIF4H FP inh	HIV Env fusion	MT1-MMP act inh	MT1-MMP act inh RFP	Yeast UUG start	others
O=[N+]([O-])c1c(NCCCO)cc(N2CCCCCC2)c2nonc12	0	i	2	3	26	2	-6	-23
CC(C)c1cccc(C(C)C)c1NC(=O)CCN1C(=O)NC2(CCCC2)C1=O	-10	.	.	.	.	-3	2	-20
COc1ccc2oc(=N)c(C(=O)Nc3ccccc3Cl)cc2c1	6	i	2	-6	-65	-1	4	-16
O=C(O)c1cccc(NC(=O)c2ccccc2NC(=O)c2cccs2)c1	.	.	.	.	7	3	8	-12
CCN1CCN(CC(=O)N/N=C/c2ccc(F)cc2F)CC1	-24	i	-13	-5	.	2	2	2
CCS(=O)(=O)N1CCC(NC(=O)C2CCCCC2)CC1	.	i	-6	6	-12	0	6	-18
CC(NC(=O)COC(=O)Cc1ccccc1[N+](=O)[O-])c1ccccc1 (stereo unspecified)	-9	i	9	-14	5	0	3	-6
Cc1ccc(-n2c(Cn3nc(C(F)F)cc3C(F)F)n[nH]c2=S)cc1	-18	i	0	2	.	-2	2	.
CC(C)(C)c1cnnn1-c1cccc([N+](=O)[O-])c1	-2	i	8	-3	2	3	9	.
COc1ccc(-n2c(C)cc(=O)[nH]c2=O)cc1	-14	i	-2	-2	-29	0	-2	-12
Cc1ccc(C(=O)N2CCN(S(=O)(=O)c3ccc(Br)cc3)CC2)o1	.	i	9	-7	-3	1	-1	-1
CN(CC(=O)Nc1ccc(C(N)=O)cc1)CC(=O)Nc1ccccc1Br	5	i	-6	8	11	-3	0	-16
Cc1cc(-c2nnc(SCC(=O)Nc3cccc(C)c3C)n2N)n[nH]1	-19	i	-5	-3	3	3	5	0
O=C(N=C1SC2CS(=O)(=O)CC2N1c1ccccc1)C1CC1 (stereo unspecified)	-11	i	.	.	-1	-4	0	-5
CCC(C)NCC(=O)Nc1ccc(-c2nc3cc(NC(=O)CNC(C)CC)ccc3o2)cc1 (stereo unspecified)	19	.	53	3	.	12	5	6	eIF4H FP inh retest=2;PABP polyA inh retest=-6
Cc1c(/C=N/NC(=O)CNc2ccccc2)c2ccccn2c1C(=O)c1ccccc1	-15	i	4	-18	.	-5	-11	.
CCN1CCN(C(=O)CNC(=O)c2nn(-c3ccc(OC)cc3)c(=O)c3ccccc23)CC1	-29	i	-8	-2	-21	1	4	-10
CN(CC1CCCN(CCc2ccc(Cl)cc2)C1)C(=O)c1ccoc1 (stereo unspecified)	3	i	-3	-14	15	-3	0	-13
COc1ccc(-c2noc(CSc3ccccc3)n2)cc1OC	1	i	4	-5	-73	3	0	-11
CN(C)CCCNC(=O)C[C@H]1C[C@H](C(=O)N2CCCCC2)[C@@]2(CCc3ccccc3)c3[nH]c4cc(CCC(=O)N(C)C)ccc4c3CCN2C1=O	.	.	.	.	-9	0	3	-12
O=C(CSC1CN(C(c2ccccc2)c2ccccc2)C1)N/N=C/c1ccc(Cl)cc1Cl	63	i	-11	-12	65*	1	1	.
O=C(O)CCc1ccc(S(=O)(=O)Nc2ccc(OCc3ccccc3)cc2)cc1	0	.	15	19	-3	4	-1	-8
CCOC(=O)c1c(NC(=O)CN2C(=O)N(C)C3(CCCCC3)C2=O)sc(C(=O)N(C)C)c1C	.	.	.	.	-9	1	3	6
CC1CC(C)CN(Cc2nc3c(c(=O)n(C)c(=O)n3C)n2CCN2CCOCC2)C1 (stereo unspecified)	1	i	-10	5	-93	-4	5	-4
Cc1cc(C)c2c(c1)c(C)cc1nnc(SCC(=O)NCc3ccco3)n12	-9	i	-1	6	-147	11	-2	-20
Cc1cccn2c(=O)nc(SCC(=O)NC3CCCC3)nc12	-5	i	.	.	1	0	2	-8
Cc1ccc(S(=O)(=O)NCC2(c3ccccc3)CCOCC2)cc1	.	i	-3	0	16	-1	2	.
CCCCSC1=C(C#N)C(c2ccccc2C)C(C(=O)OCC)C(=O)N1 (stereo unspecified)	.	i	-3	7	.	-5	-11	.
CCOC(=O)CNC(=O)CSc1nnc(-c2ccco2)n1Cc1ccco1	-4	i	1	8	-18	-7	-9	-20
N#CCCN(NC1=NS(=O)(=O)c2ccccc21)C(=O)c1ccccc1Br	-6	i	11	3	.	0	1	-12
O=C1CC(SC(=Nc2ccccc2)Nc2ccccc2)C(=O)N1c1cccc2ccccc12 (stereo unspecified)	5	i	-9	-10	.	-2	-6	4
CCn1c(/C=C/c2c[nH]c3ccccc23)nc2ccccc2c1=O	-12	i	0	-3	-36	0	-3	.
COc1ccc(C(=O)C2CCCN(Cc3ccc4nonc4c3)C2)c(C)c1 (stereo unspecified)	3	i	-2	-5	-3	1	-14	-11
COc1ccc(CN2CCC(N(CCc3ccccc3)Cc3ccccc3)CC2)c(OC)c1	?	i	2	4	-9	-8	-8	8
O=C(O)C1CSC(CCc2ccccc2)N1 (stereo unspecified)	28	i	9	3	.	1	1	.
COc1ccc(CNC(=O)CN2C(=O)COc3ccc(S(=O)(=O)N4CCCC4)cc32)cc1	-4	i	0	-4	13	-2	2	-8
COc1ccc(Cc2nc(C(=O)NCc3ccccc3OC)cs2)cc1	-7	i	0	-8	.	-6	-7	-12
O=C(N/N=C/c1c[nH]c2ccc(Br)cc12)c1ccn(Cc2ccc(Cl)cc2Cl)n1	-15	i	-1	0	.	-3	-4	-4
Cc1cccc(/C(N)=N/OC(=O)Cc2cccc3ccccc23)c1	12	i	0	-3	9	1	4	.
C/C(=N\NC(=O)c1cc(-c2cccc([N+](=O)[O-])c2)n[nH]1)c1ccc(F)cc1	-7	i	-16	3	-7	3	2	-17
CC(C)CSc1ncc(-c2cccc(C(F)(F)F)c2)cn1	6	i	-6	-9	-15	-4	2	-3
COc1ccc(C(=O)N2CCN(c3cccc(Cl)c3)CC2)c(OC)c1	-11	i	1	3	.	-4	-11	11
O=C(NCc1ccccn1)C(=O)NCc1ccccn1	-17	i	-11	4	-5	0	-1	.
COCCn1nnnc1C(c1ccc(OC)c(OC)c1)N1CCN(c2nc3ccccc3s2)CC1 (stereo unspecified)	-10	i	8	-4	.	-1	1	.
O=C(N/N=C/c1cccc(Oc2ccccc2)c1)c1cccc(Br)c1	68	i	-2	-10	.	-1	-5	-2

Two records picked at random from those above, as already listed:
SMILES	CSC inhib	Rce1 inh	PABP polyA inh	eIF4H FP inh	HIV Env fusion	MT1-MMP act inh	MT1-MMP act inh RFP	Yeast UUG start	others
CC(C)c1cccc(C(C)C)c1NC(=O)CCN1C(=O)NC2(CCCC2)C1=O	-10	.	.	.	.	-3	2	-20
COc1ccc(-c2noc(CSc3ccccc3)n2)cc1OC	1	i	4	-5	-73	3	0	-11

(continued)
SMILES	CSC inhib	Rce1 inh	PABP polyA inh	eIF4H FP inh	HIV Env fusion	MT1-MMP act inh	MT1-MMP act inh RFP	Yeast UUG start	others
COC(=O)c1ccc(-n2nnnc2SCC(=O)Nc2ccccc2OC)cc1	-5	i	-6	-6	.	-2	1	4
CCc1ccccc1NC(=O)N1CCc2ccccc21	-3	i	1	-5	1	-1	1	.
O=S(=O)(c1ccccc1)N1CCNc2ccccc21	.	.	.	.	7	2	1	-20
Cc1nn(-c2ccc(F)cc2)c2nc(N)c(C#N)c(-c3cccs3)c12	59	i	20	-2	-310	-14	-4	-4
OC(c1ccc(F)cc1)(C1CCCCC1)C(CN1CCOCC1)c1ccccc1 (stereo unspecified)	28	i	12	-3	47	-7	-6	4
O=C(NCCc1ccc(C(F)(F)F)cc1)C1CCC(=O)N(C2CC2)C1 (stereo unspecified)	-2	i	2	-5	-27	1	3	-8
Cc1cc(Nc2ccccc2)nn1C(=O)c1ccc(Br)cc1	2	i	2	-4	.	-2	0	2
Clc1ccc(-c2nnc(-c3ccco3)nc2N2CCCCC2)cc1	.	i	2	48	11	3	7	.
CCC(C(=O)Nc1ccc(N2CCOCC2)c(S(=O)(=O)Nc2ccccc2OC)c1)c1ccccc1 (stereo unspecified)	23	.	.	.	-23	3	-2	.
Cc1cc(C)c(C(=O)CSc2n[nH]c(=O)n2C2CC2)cc1C	9	i	-2	-4	31	-2	-4	-27
CCCCn1c(N)c(N(CCOC)C(=O)C2CCN(S(=O)(=O)c3ccc(C)cc3)CC2)c(=O)[nH]c1=O	8	i	.	.	0	-1	-3	.
Cc1c([N+](=O)[O-])c(C(=O)N2CCCC2)nn1C	-13	i	-10	-9	.	2	5	.
CCc1nc2ccc(C(=O)Nc3cccc(C(C)=O)c3)cc2nc1CC	.	i	3	-5	-7	-1	-4	-12
CCOC(=O)c1c(-c2ccc(Cl)cc2)cn2ccccc12	-16	i	2	7	.	-2	-9	-19
O=C1c2ccccc2C(O)(Cc2ccccc2)N1c1ccc2c(c1)OCO2 (stereo unspecified)	0	i	2	8	.	3	-1	4
CCOC(=O)c1c(-c2ccccc2)csc1NC(=O)c1cc2ccccc2oc1=O	4	i	13	-5	.	-5	1	-11
CC(=O)NS(=O)(=O)c1ccc(NC(=O)c2ccccn2)cc1	-18	i	0	7	-21	-6	0	.
Cc1ccccc1NS(=O)(=O)c1ccc(-c2ccc(=O)[nH]n2)o1	-3	i	2	-15	-3	-4	-3	.
C[C@H](O)[C@@H]1C(=O)N2CCc3c([nH]c4ccccc34)[C@@H]2C[C@@H]1N(C)C(=O)c1cc(Cl)cc(Cl)c1	.	.	.	.	-8	-1	-1	33
NC(=O)c1c(NC(=O)COC(=O)c2ccc(S(=O)(=O)Nc3ccccc3)cc2)sc2c1CCCC2	-4	i	-2	38	19	-1	-2	.
CCOC(=O)C1CCN(C(=O)/C=C/c2ccccc2OC)CC1	15	i	-5	-5	-36	1	1	-12
Cc1noc(C)c1CS(=O)(=O)c1ccc([N+](=O)[O-])cc1	-3	i	-8	-2	-12	6	-2	.
COc1ccc(OC)c(NC(=O)CCN2CCN(C/C=C/c3ccccc3)CC2)c1	-14	i	12	-8	5	2	6	15
O=CN1CCN(C(=O)Cc2ccc([N+](=O)[O-])cc2)CC1	-26	i	-2	7	11	4	5	.
COc1cccc(S(=O)(=O)Nc2noc3ccccc23)c1	10	i	-14	-5	-5	-5	2	-8
CC(C)C(=O)Nc1c(-c2cccs2)c(=O)c2ccccc2n1C	.	i	0	-9	-20	0	3	-1
CCN1CCCC1CN=Cc1c(O)n(-c2ccccc2)c(=O)c2ccccc12 (stereo unspecified)	-15	i	4	-6	9	-15	-3	-8
O=C(COC(=O)CN1C(=O)C2CC=CCC2C1=O)Nc1cccc([N+](=O)[O-])c1 (stereo unspecified)	.	.	.	.	5	2	5	-9
COc1cc(OC)cc(C(=O)N2CCC(C(=O)NCCc3ccccc3)CC2)c1	-2	i	2	-6	-3	2	-4	-19
Cc1nonc1NC(=O)CSc1nnc(-c2ccoc2C)n1-c1cccc(Cl)c1	-13	i	0	-8	-119	-3	-4	11
O=C(CSc1nc2ccccc2n1CCc1ccccc1)NC1CC1	-17	i	-3	-6	16	-1	0	.
Cc1cn([C@H]2C[C@H](O)[C@@H](CNCc3ccccc3OCCCN3CCOCC3)O2)c(=O)[nH]c1=O	.	.	.	.	-10	4	7	4
Cc1ccc(/C=N/NC(=O)c2csc(C)c2)o1	4	i	4	9	-11	1	-1	-14
O=S(=O)(Cc1nnnn1-c1ccccc1)c1ccc(F)cc1	-3	i	-6	-5	7	-1	2	-15

Only part of the results is shown, so the mix of outcomes need not match the whole.
